YB-1 expression – YB-1 expression inhibition. delta delta Cp (YB-1 minus CDIP) (no concentration beside the values). actives 0.37% (n = 30,000). U2OS, qRT-PCR YB-1 vs CDIP delta delta Cp, 16 h; hits give high values; zero = DMSO, each unit about twofold;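 active means delta delta Cp rounded down to an integer at or above 3, about 3 SD of DMSO wells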;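 further: higher means less YB-1 transcript or more CDIP transcript relative to DMSO; stock transfer was 100 nL into about 100 µL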
MITF inhib – MITF inhibition; TRPM1 promoter luciferase, luminescence, 24 h; inhibition, % (no concentration beside the values); actives 0.28% (n = 37,000); AID 2240;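 active means most replicates at 85% or more, or half of them and the mean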;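 further: human melanocyte line stably carrying TRPM1 promoter luciferase reporter; 0% = vehicle wells and 100% = a positive control; the first replicate is given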
Hedgehog inh – blocks Sonic Hedgehog signaling | Shh-LIGHT2 Gli-luciferase reporter, 30 h | inhibition, % (no concentration beside the values) | actives 2.1% (n = 22,000) | AID 2313;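 active means replicate mean of 65% or more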;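 further: pathway switched on by Shh-conditioned medium diluted 1 in 25 in low serum; 100 nL library stock added to about 40 µL; 0% = median of neutral wells and 100% = positive control level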
PD-1 reverse act – activators reversing PD-1 mediated T-cell inhibition; primary human CD4 T cells, PD-L1 beads, CellTiter-Glo 96 h; activation, % (no concentration beside the values); 29,000 tested, under 10 active;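 active means replicate mean of 50% or more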;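 further: 0% = median vehicle wells and 100% = positive control; 100 nL library stock added to about 50 µL; numbers are from one replicate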
* hit, by the source's call; nt = no result given.

SMILES	YB-1 expression	MITF inhib	Hedgehog inh	PD-1 reverse act
C[C@@H]1CN([C@@H](C)CO)C(=O)c2cc(NC(=O)CCN3CCOCC3)ccc2O[C@@H]1CN(C)Cc1ccc(C(F)(F)F)cc1	-0.34	-14	nt	nt
Cc1noc(C)c1S(=O)(=O)Nc1ccc2c(c1)C(=O)N([C@@H](C)CO)C[C@@H](C)[C@@H](CN(C)C)O2	0.36	3	-16	1.3
C=CC(C)(O)CCC1(C)C2=C(C(OC(C)=O)C(OC(C)=O)C1C)C(C)(C)CCC2 (configuration not stated)	-0.4	7	-7	-1.6
Cc1noc(C)c1S(=O)(=O)Nc1cccc2c1O[C@H](CN(C)S(=O)(=O)c1cn(C)cn1)[C@H](C)CN([C@H](C)CO)C2=O	0.66	0	-4	1.3
COc1ccc(NC(=O)Nc2ccc3c(c2)C(=O)N([C@H](C)CO)C[C@H](C)[C@@H](CN(C)C)O3)cc1	0.23	-4	12	nt
C[C@@H]1CN([C@H](C)CO)C(=O)Cc2cc(NC(=O)Nc3ccc(F)cc3)ccc2O[C@@H]1CN(C)Cc1ccc(Cl)c(Cl)c1	-0.38	39	14	-9.6
C[C@@H]1CN([C@H](C)CO)C(=O)Cc2cc(NS(=O)(=O)c3ccccc3)ccc2O[C@@H]1CN(C)C(=O)Nc1ccc(F)cc1	-0.035	-13	7	nt
C[C@@H]1CN([C@@H](C)CO)C(=O)c2cc(NC(=O)CCCN(C)C)ccc2O[C@@H]1CN(C)S(=O)(=O)c1ccc(Cl)cc1	0.28	1	-2	0.8
COc1ccc(S(=O)(=O)N(C)C[C@H]2Oc3c(NS(=O)(=O)c4ccc(C)cc4)cccc3C(=O)N([C@H](C)CO)C[C@H]2C)cc1	0.0047	-10	18	1.8
CC(=O)c1ccc(NC(=O)CSc2nc3ccc(NC(=O)c4ccccc4Cl)cc3s2)cc1	nt	15	nt	0.1
CS(=O)(=O)N(CC(=O)Nc1ccc(Br)cc1)c1ccc(Cl)cc1Cl	nt	1	nt	-1.2
C[C@@H]1CN([C@H](C)CO)C(=O)Cc2cc(NC(=O)NC3CCCCC3)ccc2O[C@@H]1CN(C)Cc1ccc2c(c1)OCO2	-0.43	-2	-21	-2.0
Cc1noc(C)c1S(=O)(=O)Nc1ccc2c(c1)C(=O)N([C@@H](C)CO)C[C@H](C)[C@H](CN(C)C(=O)Nc1ccc(C(F)(F)F)cc1)O2	-0.37	-8	nt	0.3
Cc1cc(Cl)c(S(=O)(=O)NC23CC4CC(CC(C4)C2)C3)cc1OCC(N)=O	nt	2	nt	0.7
COc1ccc(OC)c(NC(=O)Cc2coc3ccc4ccccc4c23)c1	nt	3	nt	-2.6
Cc1cccc(-c2nnc(SCC(=O)Nc3cc([N+](=O)[O-])ccc3C)o2)c1	nt	-11	nt	-0.4
COc1ccc(CN(C)C[C@H]2Oc3ccc(NC(=O)Nc4ccccc4)cc3CC(=O)N([C@@H](C)CO)C[C@@H]2C)cc1	0.28	-8	nt	0.2
Cc1ccc(S(=O)(=O)N2CCN(c3ccc([N+](=O)[O-])c(NCc4ccco4)c3)CC2)cc1C	nt	1	nt	1.7
COc1ccc(CN(C)C[C@@H]2Oc3ccc(NC(=O)Cc4cn(C)c5ccccc45)cc3CC(=O)N([C@H](C)CO)C[C@H]2C)cc1	-0.18	16	-5	nt
C[C@@H]1CN([C@H](C)CO)C(=O)Cc2cc(NC(=O)Cc3ccccc3)ccc2O[C@@H]1CN(C)S(=O)(=O)c1ccc(Cl)cc1	0.038	-2	1	-0.8
CCOC(=O)c1cc(C)n(CCCN2CCOCC2)c1C	nt	-8	nt	2.0
Cc1noc(C)c1S(=O)(=O)N(C)C[C@@H]1Oc2ccc(NC(=O)Nc3ccc(F)cc3)cc2CC(=O)N([C@@H](C)CO)C[C@@H]1C	0.011	-5	-29	nt
COc1ccc(S(=O)(=O)Nc2cccc3c2O[C@H](CN(C)S(=O)(=O)c2ccc(OC)cc2)[C@@H](C)CN([C@@H](C)CO)C3=O)cc1	-0.026	-12	-14	1.9
CCOC(=O)C(C)N1c2cccc3cccc(c23)S1(=O)=O (configuration not stated)	-0.021	4	-23	0.4
COc1ccc(S(=O)(=O)n2cc(-c3ccc(F)cc3)c(N)n2)c(OC)c1	nt	33	nt	-1.9
SMILES	YB-1 expression	MITF inhib	Hedgehog inh	PD-1 reverse act
COc1ccc(S(=O)(=O)Nc2ccc3c(c2)CC(=O)N([C@@H](C)CO)C[C@@H](C)[C@@H](CN(C)S(=O)(=O)c2ccc(C)cc2)O3)cc1	-0.094	-20	7	nt
COc1ccc(NC(=O)N(C)C[C@H]2Oc3ccc(NS(=O)(=O)c4ccc(F)cc4)cc3CC(=O)N([C@@H](C)CO)C[C@@H]2C)cc1	0.016	-4	-7	-2.6
O=C(CSc1nnc(-c2cccc([N+](=O)[O-])c2)n1-c1ccccc1)c1ccc(Br)cc1	nt	-38	nt	-3.4
Cn1c(SCC(=O)Nc2c(F)cc(F)cc2Br)nnc1-c1cnccn1	nt	-20	nt	1.8
Cc1ccc(S(=O)(=O)Nc2ccc3c(c2)C(=O)N([C@H](C)CO)C[C@H](C)[C@@H](CN(C)Cc2ccccc2)O3)cc1	0.063	-5	13	0.5
C/C(=N\O)c1cc(Cl)cc(Cl)c1O	-0.45	4	18	-3.4
C=CCNC(=O)COc1nc(-c2cccs2)cc(C(F)(F)F)n1	0.084	-25	-8	-0.3
C[C@H](CO)N1C[C@H](C)[C@H](CN(C)S(C)(=O)=O)Oc2ccc(NC(=O)Nc3ccc(C(F)(F)F)cc3)cc2CC1=O	0.38	2	nt	-1.2
Cc1noc(C)c1NC(=O)Nc1ccc2c(c1)CC(=O)N([C@@H](C)CO)C[C@H](C)[C@@H](CN(C)C)O2	0.18	-9	nt	0.5
C[C@@H]1CN([C@H](C)CO)C(=O)Cc2cc(NC(=O)C3CCCCC3)ccc2O[C@H]1CN(C)C(=O)NC1CCCCC1	-0.055	-6	-25	-0.8
CC(C)NC(=O)N(C)C[C@H]1Oc2ccc(NC(=O)CCN3CCOCC3)cc2CC(=O)N([C@@H](C)CO)C[C@H]1C	-0.059	3	13	nt
CCCN(CCC)C(=O)c1c(NC(=O)c2ccco2)sc2c1CCC(C)C2 (configuration not stated)	-0.22	0	10	0.9
CNC[C@@H]1Oc2ccc(NC(=O)Nc3ccc(OC)cc3)cc2C(=O)N([C@@H](C)CO)C[C@@H]1C	0.36	-1	-3	1.1
CCOC(=O)c1cnc2c(C)c(C)ccc2c1NCCN(C)C	nt	-33	nt	-2.6
Cc1noc(C)c1NC(=O)Nc1ccc2c(c1)C(=O)N([C@H](C)CO)C[C@@H](C)[C@H](CN(C)Cc1ccc(C(=O)Nc3ccccc3N)cc1)O2	0.093	2	nt	1.2
C[C@H](CO)N1C[C@H](C)[C@H](CN(C)Cc2ccc(C(=O)O)cc2)Oc2ccc(NC(=O)c3ccncc3)cc2CC1=O	-0.019	-8	-14	nt
Cc1c(Cl)cccc1NC(=O)c1ccccc1OCC(=O)Nc1ccc2c3c(cccc13)CC2	nt	13	nt	-1.0
C[C@H](CO)N1C[C@H](C)[C@H](CN(C)S(=O)(=O)c2ccc(F)cc2)Oc2ccc(NC(=O)C3CCCCC3)cc2CC1=O	-0.089	-4	30	nt
C[C@H](CO)N1C[C@H](C)[C@@H](CN(C)Cc2ccncc2)Oc2ccc(NS(=O)(=O)c3cn(C)cn3)cc2C1=O	-0.35	-2	-35	0.9
CCN(CC)c1ccc2cc(C(=O)Nc3ccccc3)c(=N)oc2c1	-0.26	-98	-13	0.5
COc1ccc(-c2nnc(SCC(=O)O)n2-c2ccccc2)cc1	nt	-23	nt	1.0
COc1ccccc1N(CC(=O)N1CCN(C)CC1)S(C)(=O)=O	nt	-12	nt	1.9
C[C@@H]1CCCCO[C@@H](CN(C)Cc2ccc3c(c2)OCO3)[C@@H](C)CN([C@H](C)CO)C(=O)c2cc(NC(=O)C3CCCCC3)ccc2O1	-0.031	-1	28	0.0
C[C@H](CO)N1C[C@H](C)[C@H](CN(C)C(=O)Nc2ccc(C(F)(F)F)cc2)Oc2c(NC(=O)Nc3ccccc3)cccc2C1=O	-0.25	2	-30	-2.4
Cc1noc(C)c1NC(=O)Nc1cccc2c1O[C@@H](CN(C)S(=O)(=O)c1cn(C)cn1)[C@H](C)CN([C@H](C)CO)C2=O	0.1	-3	7	2.0

Reprinted at random: two entries already listed.
SMILES	YB-1 expression	MITF inhib	Hedgehog inh	PD-1 reverse act
Cc1cc(Cl)c(S(=O)(=O)NC23CC4CC(CC(C4)C2)C3)cc1OCC(N)=O	nt	2	nt	0.7
CS(=O)(=O)N(CC(=O)Nc1ccc(Br)cc1)c1ccc(Cl)cc1Cl	nt	1	nt	-1.2

One compound at a time, from the list above. Values in the order: YB-1 expression	MITF inhib	Hedgehog inh	PD-1 reverse act
C[C@H](CO)N1C[C@H](C)[C@@H](CN(C)Cc2ccncc2)Oc2ccc(NS(=O)(=O)c3cn(C)cn3)cc2C1=O is listed as -0.35	-2	-35	0.9
O=C(CSc1nnc(-c2cccc([N+](=O)[O-])c2)n1-c1ccccc1)c1ccc(Br)cc1 is listed as nt	-38	nt	-3.4
Cn1c(SCC(=O)Nc2c(F)cc(F)cc2Br)nnc1-c1cnccn1 is listed as nt	-20	nt	1.8
C[C@H](CO)N1C[C@H](C)[C@H](CN(C)S(C)(=O)=O)Oc2ccc(NC(=O)Nc3ccc(C(F)(F)F)cc3)cc2CC1=O is listed as 0.38	2	nt	-1.2
CNC[C@@H]1Oc2ccc(NC(=O)Nc3ccc(OC)cc3)cc2C(=O)N([C@@H](C)CO)C[C@@H]1C is listed as 0.36	-1	-3	1.1

Further records:
SMILES	YB-1 expression	MITF inhib	Hedgehog inh	PD-1 reverse act
CCc1ccc(/C=N/n2c(C)nnc2-n2nc(C)cc2C)cc1	-0.051	3	12	0.6
C[C@H]1CN([C@@H](C)CO)C(=O)c2cccc(NS(C)(=O)=O)c2O[C@@H]1CN(C)S(=O)(=O)c1ccc(F)cc1	-0.45	-2	30	nt
N#Cc1ccc2c(c1)N(CCCN1CCC(O)CC1)c1ccccc1S2	-0.11	-12	-6	nt
Cc1ccccc1OCC(=O)Nc1cccc(Oc2ccc3c(c2)C(=O)NC3=O)c1	nt	-17	nt	0.4
C[C@@H]1CN([C@@H](C)CO)C(=O)c2cccc(NC(=O)C3CCCCC3)c2O[C@H]1CN(C)Cc1ccc2c(c1)OCO2	0.054	19	-1	-1.0
C[C@H](CO)N1C[C@H](C)[C@@H](CN(C)Cc2ccc(Cl)c(Cl)c2)Oc2c(NC(=O)C3CCCCC3)cccc2C1=O	-0.92	29	-16	-0.7
O=C(Cn1nnc2ccccc21)c1ccc(Oc2ccc([N+](=O)[O-])cc2)cc1	nt	62	nt	2.2
COc1ccccc1NC(=O)c1ccc(C(C)(C)C)cc1	0.14	-7	-69	-3.5
CC(=O)Cc1cc(O)cc2oc(C)cc(=O)c12	0.061	-14	-42	-0.6
OCC1=CC[C@@H]2C=CO[C@@H](O[C@@H]3O[C@H](CO)[C@@H](O)[C@H](O)[C@H]3O)[C@H]12	0.78	nt	-20	nt
Clc1nsnc1N1CCOCC1	-0.23	-10	-44	-20
CCc1cc2c(SCc3nc4ccccc4[nH]3)ncnc2s1	nt	63	nt	-8.4
COc1c(O)cc2c(c1O)C(=O)CC(c1ccccc1)O2 (configuration not stated)	-0.27	-56	11	-2.6
C[C@@H]1CCCCO[C@H](CN(C)Cc2ccccc2)[C@@H](C)CN([C@H](C)CO)C(=O)c2cc(NS(=O)(=O)c3ccc(Cl)cc3)ccc2O1	-0.24	-3	36	nt
CC1CCc2c(sc3nc(SCC(=O)NCC4CCCO4)n(-c4ccccc4)c(=O)c23)C1 (configuration not stated)	nt	-1	nt	-6.4
C[C@@H]1CN([C@H](C)CO)C(=O)c2cc(NC(=O)CCCN(C)C)ccc2O[C@@H]1CN(C)Cc1ccccc1	-0.13	-11	-11	0.5
O=C1CC(c2ccccc2)Oc2ccc(Cl)cc21 (configuration not stated)	0.02	-16	-48	-6.1
COc1ccccc1OCC(O)Cn1cnc2ccccc21 (configuration not stated)	nt	-22	nt	-3.0
COc1ccc(S(=O)(=O)N(C)C[C@H]2Oc3ccc(NC(=O)CCCCCC(=O)Nc4ccccc4N)cc3C(=O)N([C@H](C)CO)C[C@H]2C)cc1	0.065	6	nt	1.6
COc1ccc(NC(=O)CSc2nnc(-c3ccco3)n2-c2ccccc2)cc1	nt	-12	nt	-0.3
CSc1ccc(C(Nc2ccccn2)c2cc(Cl)c3cccnc3c2O)cc1 (configuration not stated)	nt	60	nt	-9.1
C[C@H](CO)N1C[C@H](C)[C@@H](CN(C)S(=O)(=O)c2ccc(F)cc2)Oc2c(NC(=O)C3CCCCC3)cccc2C1=O	-0.13	-6	-13	1.1
C[C@@H]1CN([C@H](C)CO)C(=O)c2cc(NC(=O)Cc3ccccc3)ccc2O[C@@H]1CN(C)Cc1ccc(-c2ccccc2)cc1	0.18	-27	nt	0.1
COc1cc(CCc2cc(OC)c(C)cc2OC)c(OC)cc1C	0.042	22	-17	-0.2
COc1ccc(N(C(=O)C2CCCCC2)S(=O)(=O)c2cccc3cccnc23)cc1	nt	22	nt	0.0
Cc1cc(=O)[nH]c(SCCOc2ccccc2C#N)n1	nt	-90	nt	-0.3

This is a subset. The share of hits here may be higher or lower than overall.
